Vif TR-FRET – inhibitors of Vif binding to APOBEC3G peptide, primary screen, biochemical, TR-FRET, GST-Vif 1-94, biotin-A3G peptide, dose response retest (AID 1117319) | 260,000 tested, 0.57% active | TR-FRET GST-Vif / biotin-A3G peptide binding; higher % means a stronger effect; test concentration not given here; strong numbers were not always called active | inhibition, %, or IC50 in µM where a hit was titrated;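 active means above the screen mean plus three standard deviations and confirmed in dose response; inconclusive means results disagree or hit not tested in dose response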;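 further: Vif residues 1-94 fused to GST binding biotinylated APOBEC3G peptide 110-148; 0% = full assay without inhibitor and 100% = GST in place of GST-Vif; retest series ran down from 100 µM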
E coli growth – inhibitors of Escherichia coli growth; AID 1053175; OD600, 23 h; stronger effect = lower value; 330,000 tested, 0.21% active; OD600 absorbance (no concentration beside the values);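 active means OD600 absorbance below the run mean of sample wells minus 3.6 SD, in any replicate, cut at about 0.56 in these data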;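 further: stock transfer was 300 nL into about 60 µL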
LANA-H2A inh – blocks KSHV LANA binding to histone H2A/H2B; cell-free LANA-H2A/H2B peptide, fluorescence polarization; inhibition, % (concentration not given with the values); 320,000 tested, 0.6% active; AID 2629; in the data active means inhibition mostly above about 10%, no sharp cut-off; inactive means mostly below about 6.7%;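 further: stock transfer was 7.5 nL into about 10 µL; 0% = median of vehicle wells and 100% = median of positive control wells; one replicate is shown; the record names a cut of 25% in any replicate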
Target sequence (Q9QR71 whole entry, looked up): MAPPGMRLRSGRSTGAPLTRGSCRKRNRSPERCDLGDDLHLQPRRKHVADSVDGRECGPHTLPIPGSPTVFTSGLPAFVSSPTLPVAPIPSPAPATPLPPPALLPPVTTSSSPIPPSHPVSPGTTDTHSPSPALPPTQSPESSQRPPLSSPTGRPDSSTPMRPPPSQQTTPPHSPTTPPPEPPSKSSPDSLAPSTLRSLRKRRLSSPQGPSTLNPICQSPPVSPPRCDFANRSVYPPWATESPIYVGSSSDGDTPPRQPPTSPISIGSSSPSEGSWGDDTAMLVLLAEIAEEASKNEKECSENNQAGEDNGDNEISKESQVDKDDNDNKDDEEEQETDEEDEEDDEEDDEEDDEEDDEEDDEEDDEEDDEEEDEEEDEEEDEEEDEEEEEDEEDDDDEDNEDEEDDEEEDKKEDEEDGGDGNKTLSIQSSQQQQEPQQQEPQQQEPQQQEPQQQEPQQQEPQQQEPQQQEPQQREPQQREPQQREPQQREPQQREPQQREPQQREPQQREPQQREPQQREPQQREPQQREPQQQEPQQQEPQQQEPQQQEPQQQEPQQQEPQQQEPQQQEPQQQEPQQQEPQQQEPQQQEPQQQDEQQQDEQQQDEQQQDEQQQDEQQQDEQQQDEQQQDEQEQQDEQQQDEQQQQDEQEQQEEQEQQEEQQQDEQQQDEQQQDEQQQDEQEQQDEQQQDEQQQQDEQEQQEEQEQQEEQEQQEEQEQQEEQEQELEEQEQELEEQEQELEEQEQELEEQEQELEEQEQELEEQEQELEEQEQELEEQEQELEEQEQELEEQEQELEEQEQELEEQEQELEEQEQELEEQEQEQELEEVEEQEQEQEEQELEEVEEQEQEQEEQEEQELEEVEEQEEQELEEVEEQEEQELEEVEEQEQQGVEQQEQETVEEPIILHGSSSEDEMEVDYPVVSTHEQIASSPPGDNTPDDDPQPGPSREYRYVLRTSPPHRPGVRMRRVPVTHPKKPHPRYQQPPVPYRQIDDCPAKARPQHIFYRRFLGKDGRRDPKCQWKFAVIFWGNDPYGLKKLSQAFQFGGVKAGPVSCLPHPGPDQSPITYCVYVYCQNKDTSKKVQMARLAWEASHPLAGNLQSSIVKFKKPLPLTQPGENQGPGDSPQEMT
Beta2AR agonist – human beta-2 adrenergic receptor agonism by FAP; P07550; Am2.2-beta2AR cells, FAP receptor internalization, flow cytometry; reference of the scale not given here; response, % (no concentration beside the values); 340,000 tested, 0.43% active; AID 504454;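 active means response above a set limit, near 3 SD of response in nonfluorescent compounds, cut at about 42% in these data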;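 further: stock transfer was 100 nL into about 11 µL; a reference agonist was the positive control; negative values mostly stem from fluorescent compounds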
Bfl-1 A1 inh – inhibitors of the anti-apoptotic protein A1, read as caspase activation. MEF A1-2A-BIM cells, Caspase-Glo 3/7 luminescence, 3 h; percent of clofoctol response, vehicle zero. caspase activation, % (concentration not given with the values). 330,000 tested, 0.066% active;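 active means over half of replicate activation scores above 10%, or exactly half above 10 with the replicate mean above 10; inconclusive means replicate mean below 10 yet half the replicates above 10; inactive means over half of replicates below 10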;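 further: wells of about 30 µL received 50 nL stock; many hits fall short of the cut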
UCH37 inh – inhibitors of human deubiquitinating enzyme UCH37. Q9Y5K5. purified proteasome/UCH37, Ub-AMC cleavage fluorescence. inhibition, % (no concentration beside the values). 330,000 tested, 0.33% active. AID 588478;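 active means mean of two replicates above 20%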;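 further: 0% = compound-free wells with enzyme and 100% = wells lacking proteasome; stock transfer was 100 nL into about 20 µL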
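System: Proteasome-associated human UCH37 deubiquitinase; Input: 0.15 nM proteasome in added enzyme buffer; Also added: Ub-AMC substrate from 1 µM stock; Incubation: 30 min compound-proteasome preincubation then 25 min substrate reaction, room temperature; Detection: fluorescence, ex 355 nm, em 460 nm; Read-out: % inhibition of Ub-AMC cleavage fluorescence; Benchmarks: no-proteasome and no-compound wells.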
HNF4A DNA FP – change in binding of human HNF4 alpha to DNA. AID 1224865. 360,000 tested, 0.3% active. P41235. activity change, % at 10 µM. HNF4a-FITC DNA binding, fluorescence polarization, 1 h; in the data active means activity change above about 30%, passing the limit was not always enough;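 further: controls were the assay level and a saturating level of protein; the project sought stronger binding though the title names inhibitors; some compounds called inactive have numbers as strong as hits; positive values seem to mean higher polarization but the record does not say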
An asterisk follows results filed as active; u = inconclusive; x = not tested or not shown; & = joins results of further samples.

SMILES	Vif TR-FRET	E coli growth	LANA-H2A inh	Beta2AR agonist	Bfl-1 A1 inh	UCH37 inh	HNF4A DNA FP
COc1ccc(CNC(=O)[C@@H]2CC=C[C@@H]3CCN(Cc4ccccc4)C(=O)[C@@H]32)cc1	x	x	2.5	1	-0.4	-0.2	3.4
CC(C)c1ccc(OCC(=O)NC(Cc2c[nH]c3ccccc23)C(=O)O)cc1 (stereo not drawn)	-3%	0.67	-0.5	7	-0.1	-0.1	-0.2
CCC(CC)c1nnc(NC(=O)CN2C(=O)C3C4C=CC(C4)C3C2=O)s1 (stereo not drawn)	-3%	0.73	-5.3	-2	1.8	0.3	-3.1
CCOc1ccc(CC(=O)NNC(=S)NC)cc1Br	-5%	0.64	5.5	-8	-0.4	6.5	-1.0
COc1cc(C=O)ccc1OCCSc1ccc(Cl)cc1	14%	0.69	-1.5	7	1.3	3.0	-0.8
O=C(CCC(=O)c1cccs1)NC(c1ccccc1)c1ccccc1	20%	0.72	-3.0	0	1.5	4.1	-11
CCOC(=O)N1CCN(C(=O)CSc2ccc3nnc(-c4ccccn4)n3n2)CC1	7%	0.68	-0.7	0	0.6	-6.4	0.2
Cn1c(=O)n(Cc2ccccc2)c(=O)c2c1nc1n2CCCN1Cc1ccccc1	12%	0.79	-0.9	-1	-0.1	0.5	2.6
COc1cccc(CNc2ccc(S(N)(=O)=O)cc2)c1OCc1ccccc1F	6%	0.7	1.9	-1	1.1	3.5	2.9
O=C1C2C3CCC(C3NCc3ccccc3)C2C(=O)N1Cc1ccccc1 (stereo not drawn)	-5%	0.66	-0.1	7	0.0	1.9	-0.5
O=C(CSc1ncccn1)Nc1ccccc1	-9%	0.71	1.9	0	-0.7	1.3	-1.3
Cn1cc(-c2ccccc2)cc(C#N)c1=O	5%	0.65	3.2	-2	-0.4	-338	-4.8
CCN(CC)CCCNC(=O)CSc1nc(-c2cccs2)cc(C(F)(F)F)n1	84%	0.7	2.0	-7	0.5	-0.4	1.0
Cc1ccccc1OCC(=O)N/N=C/c1cn(C)c2ccccc12	u	x	-1.1	10	1.3	x	-2.6
CCCC(=O)NC(c1ccc(OC)c(OC)c1)c1c(O)ccc2ccccc12 (stereo not drawn)	0%	0.68	-6.1	-7	0.4	-6.3	-1.7
COc1ccccc1NC(=O)Nc1sccc1-c1nc2ccccc2s1	-4%	0.65	-5.1	-7	0.5	-15	16
N#CC1=C(SCC(=O)Nc2cccc3cccnc23)NC(=O)C(C#N)C12CCCCC2 (stereo not drawn)	11%	0.74	-5.1	7	0.9	3.8	-3.5
CC(=O)Nc1ccc(SC(C)C(=O)NC2CCCC2)cc1 (stereo not drawn)	0%	0.66	-3.4	0	u	1.1	2.4
CCCCn1ccnc1C(=O)c1ccc(S(=O)(=O)N(CCOC)CCOC)cc1	-7%	0.72	-1.7	-7	0.1	4.4	4.2
CC(=O)Nc1ccc(S(=O)(=O)N=S(C)C)cc1	7%&0%	0.71	-3.2	-1	-0.2	2.2	1.4
Cc1ccc(S(=O)(=O)N(Cc2ccc(Cl)cc2)c2ccccc2C(=O)NCc2cccnc2)cc1	u	0.7	-3.3	-21	0.8	3.3	0.3
O=C(NCN1CCN(c2ccccc2F)CC1)c1ccccc1	0%	0.71	1.0	9	0.1	2.0	2.0
Cc1cccc(NC(=O)CSc2nc3ccccc3nc2N2CCCCC2)c1	x	0.78	3.4	-10	-0.3	-11	2.9
CC(NC(=O)CN(c1cccc(C(F)(F)F)c1)S(=O)(=O)c1ccc(Cl)c([N+](=O)[O-])c1)c1ccccc1 (stereo not drawn)	30%	0.66	-11	19	0.0	5.5	5.2
Cc1ccc(-n2c(=S)[nH]c3[nH]ncc3c2=O)cc1	-4%	0.69	-4.5	0	0.1	-1.3	-2.3
Cc1nn(C)c(C)c1NS(=O)(=O)c1ccc(Cl)s1	x	0.64	3.1	6	0.9	0.1	-0.1
COc1ccc(Cl)cc1-n1c(=S)sc2c(=O)[nH]c(SCC(=O)C(C)(C)C)nc21	3%	0.67	-0.9	2	-0.3	3.4	0.8
CCOC(=O)c1c[nH]c2ccc3ccccc3c2c1=O	x	0.67	0.0	-2	1.4	0.7	5.4
O=C(CSc1nnc(NC(=O)c2ccco2)s1)Nc1ccccc1Cl	x	0.71	-4.9	3	0.6	-0.3	2.5
COc1ccccc1CNC(=O)CCCc1nnc2n(C)c(=O)c3sccc3n12	5%	0.69	-0.1	-1	1.6	4.5	-0.2
CC1CC(C)(C)Nc2ccc(N=O)cc21 (stereo not drawn)	9%	0.67	x	16	x	9.9	-1.8
CCc1nc2ccccc2c(=O)n1NCCc1ccccc1	x	0.67	-3.8	-9	-0.6	0.9	-4.7
CCOc1[nH]n(-c2ccccc2)c(=O)c1C=Nc1ccc(C(=O)OC)cc1	6%	0.71	-2.8	-3	0.9	2.7	-0.9
Cc1cccc(NC2=NC(C)(C)N=C(N)N2)c1	x	0.72	1.5	3	0.9	0.0	-4.5
COc1ccc(Nc2nc(-c3cccs3)nc3ccccc23)c(OC)c1	-3%	0.66	-5.2	-8	0.1	-35	-0.3
COc1ccc(Cl)cc1NC(=O)C1Cc2ccccc2CN1S(C)(=O)=O (stereo not drawn)	3%	0.55	-2.7	2	0.6	7.6	-2.6
CCC(C)n1[nH]c(=O)c2c(C)cc(C)nc21 (stereo not drawn)	-6%	0.73	-5.3	0	0.4	-1.5	-0.2
Cc1c(OCC(=O)NCCCn2ccnc2)ccc2c3c(c(=O)oc12)CCC3	x	0.66	4.9	-7	-0.8	-20	1.7
O=C(CSc1nccn1-c1ccccc1)Nc1ccc2c(c1)OCO2	7%	0.75	-2.7	-3	0.4	1.2	0.3
CC(C)N(Cc1cc2ccccc2[nH]c1=O)C(=O)C(C)(C)C	u	0.69	-3.7	1	1.0	2.2	-2.6
COc1ccc(C(=O)O)cc1S(=O)(=O)NC(C)(C)C	10%	0.73	4.7	-3	0.0	-0.9	2.3
OCCN(Cc1ccccc1)CC(O)COc1ccc(-c2ccccc2)cc1 (stereo not drawn)	-8%	0.59	-3.8	7	0.0	2.4	0.4
COc1ccc(OC)c(N(CC(=O)NC2CC2)S(=O)(=O)c2ccc(C)cc2)c1	24%	0.72	-1.5	0	-0.5	3.8	-1.4
Cc1ccc(-c2csc(Nc3ccccc3)[n+]2CCc2ccccc2)cc1	11%	0.74	9.6	13	-0.5	3.7	-3.6
Cc1cc(C(=O)N/N=C/c2c(C)nn(-c3ccccc3)c2C)n[nH]1	u	x	6.6	-1	0.6	x	-4.7
CC(C)CCN(CC(=O)NC1CCCC1)C(=O)C(=O)Nc1ccc2c(c1)OCCO2	x	0.66	1.4	4	0.0	0.1	-0.4
Cc1ccc2ccc3cccc4ccc1c2c34	x	0.66	-2.3	-2	0.3	-447	0.8
C=CCC[C@@H](Cc1ccc(F)cc1)C(=O)OC[C@@H](NC(=O)[C@@H](CC=C)CC(=O)N[C@H](CO)Cc1ccccc1)C(C)(C)C	x	x	3.3	-4	-0.3	1.2	-1.3
Cc1nc(C(=O)NNC(=O)c2c(-c3c(Cl)cccc3Cl)noc2C)cs1	-3%	0.64	4.1	4	0.0	1.8	5.5
CCCCOc1ccc(C(=O)C(CN2CCOCC2)c2ccccc2)cc1 (stereo not drawn)	-2%	0.66	0.0	-9	0.5	0.7	4.0
O=c1c2c(nc3cc(-c4ccc(Br)cc4)[nH]n13)CCCC2	-6%	0.67	-1.7	-8	-2.5	-0.9	6.2
CCOC(=O)C(CC)Sc1nc2c(cnn2-c2ccccc2)c(=O)[nH]1 (stereo not drawn)	u	0.74	-1.5	10	-0.3	5.3	0.8
CCOC(=O)c1ccc(NC(=O)c2nc[nH]c2C(=O)NCC(=O)OC(C)(C)C)cc1	x	0.66	0.3	-3	-0.6	-1.7	2.5
COc1ccccc1-c1cc(C(=O)N2CCc3ccccc3C2)c2ccccc2n1	-4%	0.74	-3.6	x	-1.5	2.9	x
COc1ccccc1-c1nc(C#N)c(N2CCN(Cc3ccccc3)CC2)o1	28%	0.69	-6.0	-6	-1.9	-11	-1.1
O=C(C1CCCN(Cc2cc(Br)ccc2O)C1)N1CCCCC1 (stereo not drawn)	0%	0.65	0.0	-5	-0.2	1.9	3.1
Oc1ccccc1-c1nc(/C=C/c2ccccc2)nn1-c1ccccc1	x	0.72	4.5	2	0.3	-0.8	0.7
Cc1ccc(Cn2nnnc2CN2CCC(NC(=O)c3ccc(Br)cc3)CC2)cc1	-3%	0.75	-6.2	-3	0.2	6.5	-1.1
CCCc1cc(=O)[nH]c(SCC(=O)N2CCOCC2)n1	x	0.7	0.5	9	0.6	0.2	-0.7
O=C(CNC(=O)c1ccccc1F)Nc1ccncc1	-1%	0.7	-5.4	-5	0.3	1.6	-0.6

5 records picked at random from those above:
SMILES	Vif TR-FRET	E coli growth	LANA-H2A inh	Beta2AR agonist	Bfl-1 A1 inh	UCH37 inh	HNF4A DNA FP
O=c1c2c(nc3cc(-c4ccc(Br)cc4)[nH]n13)CCCC2	-6%	0.67	-1.7	-8	-2.5	-0.9	6.2
Cc1ccc(-c2csc(Nc3ccccc3)[n+]2CCc2ccccc2)cc1	11%	0.74	9.6	13	-0.5	3.7	-3.6
COc1ccc(Cl)cc1-n1c(=S)sc2c(=O)[nH]c(SCC(=O)C(C)(C)C)nc21	3%	0.67	-0.9	2	-0.3	3.4	0.8
CCOC(=O)C(CC)Sc1nc2c(cnn2-c2ccccc2)c(=O)[nH]1 (stereo not drawn)	u	0.74	-1.5	10	-0.3	5.3	0.8
Cn1c(=O)n(Cc2ccccc2)c(=O)c2c1nc1n2CCCN1Cc1ccccc1	12%	0.79	-0.9	-1	-0.1	0.5	2.6

Continuation:
SMILES	Vif TR-FRET	E coli growth	LANA-H2A inh	Beta2AR agonist	Bfl-1 A1 inh	UCH37 inh	HNF4A DNA FP
Nc1cc(-c2ccccc2)nn1Cc1ccc(Cl)cc1	4%	0.8	2.2	-1	1.2	-6.7	0.6
CCC(CC)c1nnc(NC(=O)c2c(C)nn(Cc3ccccc3Cl)c2C)s1	11%	0.79	1.8	7	-0.1	-1.3	-4.2
CC(C)(C)C(=O)NC1=NN(c2c(Cl)cc(Cl)cc2Cl)C(=O)C1	x	0.67	0.0	4	0.1	4.2	0.4
CCCCNC(=O)OCCSCCS(=O)(=O)c1ccc(Cl)cc1	3%	0.69	-3.6	-2	1.7	4.1	0.4
CCn1c(SCC(=O)NCc2ccco2)nnc1-c1c[nH]c2ccccc12	27%	0.66	-9.1	-5	0.2	0.4	15
Brc1cccc(-c2nnc3sc(CNC4CCCC4)cn23)c1	-2%	0.71	2.9	-8	0.1	3.5	12
CS(=O)(=O)N1CCC(C(=O)N2CCN(c3ccccc3F)CC2)CC1	2%	0.69	1.7	-2	1.0	-0.5	2.9
CN(C(=O)C1CCN(S(=O)(=O)c2ccccc2)CC1)c1c(N)n(Cc2ccccc2)c(=O)[nH]c1=O	-5%	0.66	6.3	-4	0.0	3.1	-2.2
CNc1nnc(SCC(=O)c2c(N)n(C3CC3)c(=O)[nH]c2=O)s1	-1%	0.68	x	-6	x	7.0	0.2
Nc1ncc([N+](=O)[O-])c(Oc2ccccc2F)n1	u	0.7	-6.9	-8	-0.4	7.8	-4.6
Cc1cc(Cl)ccc1NC(=O)COC(=O)c1c(C)noc1C	25%	0.71	2.1	-3	-2.4	0.4	2.7
CCOC(=O)C1CCN(CC(=O)Nc2c(C(=O)OC)n(C)c3cccc(C)c23)CC1	1%	0.75	-0.2	-3	0.0	-1.7	3.6
CN(c1ccccc1)S(=O)(=O)c1cc(C(=O)NCCCn2ccnc2)ccc1Cl	-4%	0.68	2.1	-5	0.6	-0.4	-2.5

High-throughput results from PubChem.
